Compound activity deposited in PubChem BioAssay by Fisher Drug Discovery Resource Center.
NPYLR7 agonist: activates Aedes aegypti NPYLR7 receptor. HEK293T NPYLR7/Galpha15, GCaMP6s calcium fluorescence. activation, % at 10 µM. 0.15% of 270,000 active; in the data active = activation above about 40%;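 note: 0% = vehicle and 100% = reference agonist at the receptor; some compounds past the cut are filed as inactive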
NPYLR7 agonist max-min: recorded beside NPYLR7 agonist, whose call it bears; activation, %; measured here: Max-Min RFU normalised activation; some inactives read as strong as hits;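 span of the calcium signal over five minutes; 0% = vehicle and 100% = native peptide agonist; compound fluorescence can raise it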
* = called active by the depositor; & = joins results of further samples.

Each structure is followed by: NPYLR7 agonist, NPYLR7 agonist max-min
1	CCCc1nc(N2CCNCC2)c2c(-c3cccc(C(F)(F)F)c3)noc2n1
 : -6, 7
2	O=S(=O)(c1cccc(Br)c1)N1CCCC1c1ccc2c(c1)OCCO2 (stereo not drawn)
 : -6, -8
3	COc1cccc(Cn2ccnc2CN(Cc2cccnc2)C(=O)c2ccc(C)cc2)c1
 : 6, 14
4	COc1ccc(-c2nc3cc(C)ccn3c2NC(=O)C(C)C)cc1OC
 : -3, 5
5	O=C(O)C1(O)CCN(c2ccc(-c3ccccc3)nn2)CC1
 : -8, -7
6	COc1ccccc1C(=O)N1CCC(C(=O)NC2CCCC[C@H]2NC(=O)c2ccccc2C)CC1 (stereo partly drawn)
 : 4, 15
7	O=C(Nc1cccc(-c2ccco2)c1)C1CCN(C(=O)Cc2ccc3c(c2)OCO3)CC1
 : -8&20, -7&9
8	CCCCCOc1ccc(C(=O)N[C@H]2CCCC[C@H]2C(=O)OCC)cc1OCCCCC
 : -2, -6
9	Cc1cc(N(C)C2CCCCC2)nc(SCc2cccc(C(=O)N3CCN(C)CC3)c2)n1
 : -1, 8
10	CN(CC(=O)NC1CCCC1)S(=O)(=O)c1cnc[nH]1
 : -5, -3
11	COc1ccc(Br)c(C(=O)Nc2cc(C(C)(C)C)nn2-c2cc(Cl)ccc2Cl)c1
 : 0, -1
12	Cc1ccc(COc2ccc(/C=C3/N=C(c4ccccc4)OC3=O)cc2)cc1
 : 3, 4
13	COc1ccc(-c2onc(C)c2C(=O)NCc2ccccc2)cc1
 : 22, 2
14	Cc1cccc2[nH]cc(CC(=O)N3CCC(Nc4cccnc4)CC3)c12
 : 18, 8
15	N#Cc1c(F)cccc1Oc1ccc(C(=O)O)cc1
 : 13, 12
16	O=C(/C=C/c1ccco1)N1CCCSC1=Nc1ccccc1
 : -5, -6
17	Oc1[nH]c2ccccc2c1N=NC1=NCCCCC1
 : 13, 11
18	CCSCCNC(=O)c1cc(-c2cc(OC)c(OC)c(OC)c2)nc2ccccc12
 : -7, -10
19	O=C(Nc1ccc(-n2cccn2)nc1)C1CCCC(C(F)(F)F)C1 (stereo not drawn)
 : -4, -3
20	Cc1ccc(-n2c(SCc3ccccc3)nnc2C(Cc2ccccc2)NC(=O)c2ccccc2Cl)cc1 (stereo not drawn)
 : 20, 22

Entries by screen from the entries so far.
Entries 5 to 15 in NPYLR7 agonist max-min read -7, 15, -7&9, -6, 8, -3, -1, 4, 2, 8, 12
Entries 5 to 15 in NPYLR7 agonist read -8, 4, -8&20, -2, -1, -5, 0, 3, 22, 18, 13

New compounds follow
Each structure is followed by: NPYLR7 agonist, NPYLR7 agonist max-min
21	CN=c1scc(C)n1N=Cc1ccc(C#N)cc1
 : 9, 9
22	Nc1ncnc2c1ncn2CCN1CCCCC1
 : 5, -2
23	CCSc1nnc(NC(=O)c2ccccc2F)s1
 : -4, -10
24	CCOC(=O)c1nn(-c2ccc(C)cc2)c(=O)cc1OCC(=O)Nc1ccc(F)cc1
 : 12, 6
25	Cc1ccc(C)c(OCC(=O)NCC2(c3ccc(F)cc3)CCOC2)c1C (stereo not drawn)
 : 15, 18
26	O=c1cc(CSCc2cc(Cl)cc3c2OCOC3)nc2ccc(Cl)cn12
 : -6, -10
27	CCn1cc(-c2ccc(-n3cccn3)cc2)c(C)n1
 : 8, -6
28	CC(=O)Nc1cccc(C(C)NC(=O)NCC2(NC(=O)OC(C)(C)C)CCCCCC2)c1 (stereo not drawn)
 : 1, 5
29	O=C(c1cc(-c2ccc(F)cc2)nc2cc(-c3ccccc3)nn12)N1CCc2ccccc2C1
 : 20, 27
30	Cc1nc(/C=C/C(=O)NC(C)c2ccc(-n3ccnc3)cc2)cs1 (stereo not drawn)
 : -6, -4
31	CCOC(=O)C1(Cc2ccccc2Cl)CCN(Cc2cccn2-c2nccs2)CC1
 : 38, 38
32	O=C(O)C1CSC2(CCCCC2)N1 (stereo not drawn)
 : -4, -12
33	Cc1ccc([N+](=O)[O-])cc1S(=O)(=O)N1C[C@@H](C)O[C@@H](C)C1
 : 2, -3
34	CCC(C)N(Cc1csc(COc2cccc(Cl)c2)n1)C(=O)Cc1ccccc1 (stereo not drawn)
 : -11, -8
35	CCc1nnc2n1N(C(C)=O)C(c1ccc(Cl)cc1)=C(C(C)=O)S2
 : 1, 0
36	CNC(=S)NNc1ncc(C(F)(F)F)cc1Cl
 : 4, 2
37	COc1ccccc1C1CC(c2ccc(Br)cc2)=NN1c1nc(-c2ccccc2)c2cc(Cl)ccc2n1 (stereo not drawn)
 : -5, 1
38	Cc1nc(C)c(CC(=O)N2CCOc3ccc(CN4CCN(c5ccccn5)CC4)cc3C2)s1
 : -4, -10
39	CCN(C(=O)c1ccn(-c2cccc(Cl)c2)n1)c1ccncc1
 : 10, 3
40	CC(=O)NC(CC(=O)OC(C(N)=O)c1ccccc1)c1cccs1 (stereo not drawn)
 : 3, 3

Structural class, the compounds so far containing a Cl atom.
Each structure is followed by: NPYLR7 agonist, NPYLR7 agonist max-min
11	COc1ccc(Br)c(C(=O)Nc2cc(C(C)(C)C)nn2-c2cc(Cl)ccc2Cl)c1
 : 0, -1
20	Cc1ccc(-n2c(SCc3ccccc3)nnc2C(Cc2ccccc2)NC(=O)c2ccccc2Cl)cc1 (stereo not drawn)
 : 20, 22
26	O=c1cc(CSCc2cc(Cl)cc3c2OCOC3)nc2ccc(Cl)cn12
 : -6, -10
31	CCOC(=O)C1(Cc2ccccc2Cl)CCN(Cc2cccn2-c2nccs2)CC1
 : 38, 38
34	CCC(C)N(Cc1csc(COc2cccc(Cl)c2)n1)C(=O)Cc1ccccc1 (stereo not drawn)
 : -11, -8
35	CCc1nnc2n1N(C(C)=O)C(c1ccc(Cl)cc1)=C(C(C)=O)S2
 : 1, 0
36	CNC(=S)NNc1ncc(C(F)(F)F)cc1Cl
 : 4, 2
37	COc1ccccc1C1CC(c2ccc(Br)cc2)=NN1c1nc(-c2ccccc2)c2cc(Cl)ccc2n1 (stereo not drawn)
 : -5, 1
39	CCN(C(=O)c1ccn(-c2cccc(Cl)c2)n1)c1ccncc1
 : 10, 3

Going on with the list:
Each structure is followed by: NPYLR7 agonist, NPYLR7 agonist max-min
41	Cc1ccc(F)c(N2C(=O)CSC2c2ccc(NC(=O)COCc3ccccc3)cc2)c1 (stereo not drawn)
 : -2, 6
42	Cc1oc(-c2ccc(F)cc2)cc1-c1nn2c(Cc3ccccc3)nnc2s1
 : -2, -8
43	CC(NC(=O)c1sccc1-n1cccc1)C1CCCO1 (stereo not drawn)
 : -1, -2
44	O=C(Cn1nnc(-c2ccc(Br)cc2)n1)c1ccc2c(c1)OCO2
 : 0, 12
45	COC(=O)N(C)C1CCS(=O)(=O)C1 (stereo not drawn)
 : 1, 10
46	CCCOC1CCCN(C(=O)c2cc(NC(C)=O)ccc2Cl)C1 (stereo not drawn)
 : -7, -12
47	Cc1nnc(SCC(=O)NC(CC(C)C)c2ncnn2C)s1 (stereo not drawn)
 : -3, -3
48	CCCCc1ccc(-c2ccc(-n3cncc3C(=O)NCc3c(-c4ccccc4)noc3C)cc2)cc1
 : 13, 12
49	Cc1cc(C)n(CCC(=O)NCCNC(=O)c2ccccc2Cl)c(=O)n1
 : 2, -1
50	CCCn1c(C)c(C)n2c3c(=O)n(CCC(=O)OC)c(=O)n(C)c3nc12
 : 3, 1
51	CC(C)Cc1cc(CNC(=O)c2cc(C3CC3)[nH]n2)on1
 : 7, 3
52	CC(C)(CCCNc1nccnc1C#N)C1OCCO1
 : 8, 5
53	O=C1OC(c2ccc([N+](=O)[O-])cc2)=N/C1=C/C(Cl)=C/c1ccccc1
 : -1, -5
54	COc1ccc2nc(SCc3nc4ccccc4c(=O)n3C)[nH]c2c1
 : 6, 3
55	NC(=O)c1ccc(OCC(=O)N2CC=C(c3ccccc3)CC2)cc1
 : 1, -1
56	O=C(CSc1nnc(-c2ccccc2)n1-c1ccccc1)N/N=C\c1cccnc1
 : -4, -11
57	NC(Cc1ccc(F)cc1)c1csc(Nc2cc(NCc3ccco3)ncn2)n1 (stereo not drawn)
 : -2, -5
58	CCc1ccc(O)c(NC(=S)NC(=O)c2cc(OC)c(OC)c(OC)c2)c1
 : 0, -3
59	Cc1cc(NC(=O)C2(C)CCN2C(=O)Cc2ccc(Cl)cc2Cl)no1 (stereo not drawn)
 : 10, 8
60	CSCCCNC(=O)C1CCC(=O)N(C2CCCC2)C1 (stereo not drawn)
 : 10, 6

Random excerpt: three records from the list
Each structure is followed by: NPYLR7 agonist, NPYLR7 agonist max-min
28	CC(=O)Nc1cccc(C(C)NC(=O)NCC2(NC(=O)OC(C)(C)C)CCCCCC2)c1 (stereo not drawn)
 : 1, 5
20	Cc1ccc(-n2c(SCc3ccccc3)nnc2C(Cc2ccccc2)NC(=O)c2ccccc2Cl)cc1 (stereo not drawn)
 : 20, 22
56	O=C(CSc1nnc(-c2ccccc2)n1-c1ccccc1)N/N=C\c1cccnc1
 : -4, -11

Of the compounds above, these contain bromine.
Each structure is followed by: NPYLR7 agonist, NPYLR7 agonist max-min
2	O=S(=O)(c1cccc(Br)c1)N1CCCC1c1ccc2c(c1)OCCO2 (stereo not drawn)
 : -6, -8
11	COc1ccc(Br)c(C(=O)Nc2cc(C(C)(C)C)nn2-c2cc(Cl)ccc2Cl)c1
 : 0, -1
37	COc1ccccc1C1CC(c2ccc(Br)cc2)=NN1c1nc(-c2ccccc2)c2cc(Cl)ccc2n1 (stereo not drawn)
 : -5, 1
44	O=C(Cn1nnc(-c2ccc(Br)cc2)n1)c1ccc2c(c1)OCO2
 : 0, 12

Carrying on:
Each structure is followed by: NPYLR7 agonist, NPYLR7 agonist max-min
61	CCOC(=O)C1CCN(C(=O)c2cc(C)nc3cc(C(C)(C)C)nn23)CC1
 : -10, 4
62	CN(C)CC1(O)CCN(C(=O)c2ccnc(-n3cnnc3)c2)C1 (stereo not drawn)
 : 3, 2
63	Cc1cnc2n(c1=O)C(CC(=O)N1CCN(Cc3ccccc3)CC1)CS2 (stereo not drawn)
 : -3, -4
64	COC[C@H]1C[C@H]2C[C@@H](O)[C@H](N3CCN(c4ccc(F)cc4)CC3)[C@]2(O)CO1
 : 4, 9
65	CCOC(=O)c1ccc2nc(NC(=O)C3CCCCC3)sc2c1
 : 1, -6

Only part of the results is shown; the hit share may differ from the screen's.
